Bioassay records as filed in PubChem BioAssay.
Bst PK mod: Pyruvate Kinase. partly purified Bacillus stearothermophilus pyruvate kinase, luminescence ATP production; ribose 5-phosphate activator present at AC10. Potency, µM. actives 1.2% (n = 51,000). AID 361, 2006; in the data active means potency below about 11 µM; inconclusive means mostly about 12 µM to 25 µM; inactive means weaker than that;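 the screen sought inhibitors and activators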;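 also: potency is read from the fitted curve at half-maximal effect; scaled between full activation by ribose 5 phosphate and full inhibition by luteolin; about four in five hits inhibit and the cells do not say which; series up to 57 µM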
TsaE inh: qHTS Assay for Inhibitors of YjeE | AID 605, 2007 | purified YjeE, fluorescence polarisation of a bound ADP probe | tRNA threonylcarbamoyladenosine biosynthesis protein TsaE (Escherichia coli (strain … | actives 0.05% (n = 71,000) | Potency, µM; active = well fitted falling curve; inconclusive = weaker or top-dose-only fall, or a rising curve; inactive = flat or poorly fitted curve;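 also: top concentration of the series not given in the record; excess ADP was the control for the full effect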
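Fluorescence polarization of a BODIPY Texas Red–ADP probe (2 uM) bound to purified YjeE (10 uM) was read after 15 min room-temperature incubation with compounds. Loss of polarization marks inhibitors; ADP serves as titrated control.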
Active calls of the source: *; i = inactive; ? = inconclusive; . = not tested or not shown. A portion of the library; rates above refer to the full screens.

The first 5 compounds (preview)
Every second line gives: Bst PK mod	TsaE inh
> CN1CC(=O)N(CCOc2ccccc2)C1=O
  >57	i
> COc1ccc(S(=O)(=O)N2CC(O)CC2C(=O)OCC(=O)Nc2ccc(Cl)cn2)cc1 (stereo not given)
  >57	i
> C#CCSc1nc(-c2cccs2)ccc1C#N
  >57	i
> Cc1cc(C(=O)N2CCN(c3ccccc3)CC2)no1
  >57	i
> COc1cc(C2C(C#N)=C(C)NC3=C2C(=O)CC(C)(C)C3)cc(OC)c1O (stereo not given)
  >57	i

All compounds of this part, previewed entries included:
Every second line gives: Bst PK mod	TsaE inh
> CN1CC(=O)N(CCOc2ccccc2)C1=O
  >57	i
> COc1ccc(S(=O)(=O)N2CC(O)CC2C(=O)OCC(=O)Nc2ccc(Cl)cn2)cc1 (stereo not given)
  >57	i
> C#CCSc1nc(-c2cccs2)ccc1C#N
  >57	i
> Cc1cc(C(=O)N2CCN(c3ccccc3)CC2)no1
  >57	i
> COc1cc(C2C(C#N)=C(C)NC3=C2C(=O)CC(C)(C)C3)cc(OC)c1O (stereo not given)
  >57	i
> COc1ccc(C(=O)N(CCCO)C(C)C(=O)NC2CCCCC2)cc1OC (stereo not given)
  >57	i
> CCC(C)(C)n1nnnc1C(c1ccc(C)cc1)N1CCCC1 (stereo not given)
  >57	i
> Cc1ccc2cc(CN(CCCN(C)C)C(=O)NCc3ccccc3)c(=O)[nH]c2c1C
  >57	i
> O=C(O)/C=C\c1ccc(Cn2ccnc2)cc1
  .	i
> O=c1c(CCc2ccccc2)nc2cncnc2n1-c1ccccc1
  .	i
> c1ccc2c(c1)oc1c(NCCN3CCOCC3)ncnc12
  >11	i
> N#Cc1c(/N=C/c2ccco2)oc(-c2ccccc2)c1-c1ccccc1
  >57	i
> C[C@H]1CN(CCO)CCN1c1ccccc1
  .	i
> CCCCCCCN
  .	i
> O=C(O)C1C2C=CC(C2)C1C(=O)Nc1ccc(C(=O)N2CCCCC2)cc1 (stereo not given)
  >57	i
> Cc1ccc2c(c1)CCCN2C(=O)c1c(C)noc1C
  >57	i
> Cc1c(C(=O)Nn2cnnc2)oc2ccccc12
  >57	i
> Cc1ccc(Cl)cc1NC(=O)C1CCCN(S(=O)(=O)c2c(C)noc2C)C1 (stereo not given)
  >57	i
> N#Cc1ccc(CN2CC[C@@]3(CCCN(C(=O)c4cc(C(F)(F)F)cc(C(F)(F)F)c4)C3)C2)cc1
  .	i
> COc1ccc2c(=O)c(C(=O)NCCc3ccc(OC)c(OC)c3)c[nH]c2c1
  >57	i
> COc1ccccc1OCCOCCn1cnc2ccccc2c1=O
  >57	i
> C=CCNC(=O)CSc1nc2sc(C)c(C)c2c(=O)[nH]1
  .	i
> NC[C@@H]1O[C@H](O[C@@H]2[C@H](O[C@@H]3O[C@H](CO)[C@@H](COC[C@H]4O[C@@H](CN)[C@@H](O)[C@@H](O)[C@@H]4N)[C@@H]3O)[C@@H](O)[C@@H](N)C[C@H]2N)[C@@H](N)[C@H](O)[C@@H]1O
  .	i
> COc1ccc2oc(=O)c(NC(=O)C3CCCCC3)cc2c1
  >57	i
> COC(=O)c1ccc(C2C(C#N)=C(C)NC3=C2C(=O)CC(C)(C)C3)cc1 (stereo not given)
  >57	i
> CCc1nnc(NC(=O)c2ccc(S(=O)(=O)N3CCCCCC3)cc2)s1
  >57	i
> O=C(O)C=Cc1ccc(Cn2ccnc2)cc1
  .	i
> CC(C)Cc1ccc(/C(=N/O)C(=O)O)s1
  >57	i
> COCCNC(=O)C(OC(=O)c1ccco1)c1ccccc1OC (stereo not given)
  >57	i
> CCOc1ccccc1-c1nc(C(N)=O)c2[nH]c(=O)n(-c3ccccc3)c2n1
  >57	i
> Cc1cc(C)cc(C(=O)N2CCC(C(N)=O)CC2)c1
  >57	i
> COc1cccc(C(=O)c2cc3ccc(O)cc3oc2=O)c1
  >57	i
> c1ccc(-c2cc(-c3nc(-c4cccnc4)no3)c3ccccc3n2)cc1
  .	i
> N#Cc1cnn(Cc2ccccc2)c1/N=C/N1CCOCC1
  >57	i
> CCc1nc2ccccc2c(C(=O)OCC(=O)NCc2ccco2)c1C
  .	i
> O=C1C2ON(c3ccccc3)C(c3ccncc3)C2C(=O)N1c1ccccc1 (stereo not given)
  >11	.
> CC(=O)Nc1ccc(-c2ccccc2)s1
  >57	i
> CC(=O)Nc1cc(C(N)=O)c(Cl)cc1Cl
  .	i
> COCCn1c(SCC(=O)c2ccc3c(c2)OCCO3)nnc1C(C)C
  >57	i
> O=C(Nc1ccc(C2CCCCC2)cc1)C1CCN(c2ncccn2)CC1
  >57	i
> Cc1cc(-c2nc3c4c5c(sc4[nH]c(=O)n3n2)CCC5)c(C)o1
  >57	i
> O=c1[nH]c2ccccc2nc1NCCN1CCOCC1
  >57	i
> C=CCn1c(SCC(=O)N2CC(=O)Nc3ccccc32)nc2scc(-c3cccs3)c2c1=O
  >57	i
> COC(=O)CSc1cc(C)nc(NC(C)=O)n1
  >57	i
> Cc1nnc(N2CCN(c3ccccc3)CC2)[nH]c1=O
  >57	i
> O=C(Nc1ccc2c(c1)OCCO2)C1CCCN(S(=O)(=O)c2cnc[nH]2)C1 (stereo not given)
  .	i
> CCN(CC)S(=O)(=O)c1ccc(-c2nnc(SCc3nnc(-c4ccc(C)cc4)o3)o2)cc1
  >57	i
> O=S(=O)(c1ccc(C2CCCCC2)cc1)N1CCN(c2ncccn2)CC1
  >57	i
> O=S(=O)(c1ccccc1)N1CCN(CC(O)COc2ccc3c(c2)CCC3)CC1 (stereo not given)
  >57	i
> O=C(C1CC1)N1CCc2cc(Br)cc(S(=O)(=O)NCc3ccccn3)c21
  >57	i
> Cc1cccc(C)c1
  .	i
> COc1ccc(C)cc1-n1nnnc1SCc1csc(C)n1
  >57	i
> CC1(C)O[C@H]2[C@@H](c3[nH]nc4c(=O)[nH]c(=O)[nH]c34)OC[C@H]2O1
  .	i
> CCC(C)NC(=O)CSc1nc2n[nH]c(C)c2c(=N)n1-c1ccc(OC)cc1 (stereo not given)
  >57	i
> CC(C)Oc1cccc(-c2cc(C(=O)N3CCN(S(C)(=O)=O)CC3)c3ccccc3n2)c1
  ?	i
> CC(=O)c1ccc(NC(=O)C2CCN(S(=O)(=O)c3cccc4cccnc34)CC2)cc1
  .	i
> CCN(CC)CCCN1C(=O)CSC1c1ccc2c(c1)OCO2 (stereo not given)
  >57	i
> O=C1CC(c2ccc(F)cc2)C2=C(CCCC2=O)N1 (stereo not given)
  >57	i
> NC(=O)C(F)(F)C12OC3C4C5CC(C6C5C3C61)C42 (stereo not given)
  >57	i
> O=C(CN1C(=O)c2ccccc2C1=O)OCN1C(=O)c2ccccc2C1=O
  >11	.

(next part)
Every second line gives: Bst PK mod	TsaE inh
> CCOc1ccc(-c2nn3c(-c4ccc(OC)cc4)nnc3s2)cc1
  >11	.
> COc1cc2c(cc1O)CC[C@@H]1[C@@H]2CC[C@@]2(C)[C@H](O)CC[C@H]12
  .	i
> CCN1CC=C2C(C#N)=C(N)C(C#N)(C#N)C(c3cc(Cl)ccc3Cl)C2C1 (stereo not given)
  >57	?
> CSc1ccccc1NC(=O)Cn1c(-c2cscn2)nc2ccccc21
  >57	i
> CCCOc1ccc(NC(=O)c2c(-c3ccccc3)noc2C)cc1
  .	i
> CCCCC(=O)Nc1ccc(F)c(Cl)c1
  >57	i
> CCc1ccc(NC(=O)C2CC=CCC2C(=O)O)cc1 (stereo not given)
  .	i
> COc1ccc(C(=O)N2CCCC(c3ccccc3)C2)cc1 (stereo not given)
  >26	.
> CSc1ccc(CNc2ccccn2)cc1
  .	i
> CCC(=NCc1ccccc1)C1=C(O)C(C(=O)OC)C(C)(C)CC1=O (stereo not given)
  >57	i
> COc1ccc(C2C(C#N)=C(N)Oc3n[nH]c(C)c32)cc1Cn1nnc2ccccc21 (stereo not given)
  .	i
> COCC1C2CC[C@H]3C(OCc4ccc(F)cc4C(F)(F)F)OC[C@]4(C)[C@H]3C2=C(CN4C(=O)OC(C)(C)C)[C@H](C)C1COC (stereo not given in full)
  .	i
> CCOC(=O)Cc1c(C)nc2c(-c3ccccc3)c[nH]n2c1=O
  >57	i
> Nc1nc(CSc2nnnn2-c2ccc(F)c(Cl)c2)nc(N2CCOCC2)n1
  >57	i
> CCCc1cc(=O)oc2c(CN3CCCC3)c(O)c(Cl)cc12
  >26	.
> Cc1ccc2c(CSc3nc4ccccc4c(=O)n3CCCO)cc(=O)oc2c1
  >57	i
> COCc1nnc(NC(=O)c2ccc(NC(=O)C(C)C)cc2)s1
  >57	i
> CNC(=O)c1nnn(Cc2ccccc2)c1NC(=O)C(F)(F)F
  >57	i
> Cn1c(=O)[nH]c(=O)c2c1nc(N1CCCCC1)n2CCCSc1nc2ccccc2s1
  >57	i
> COc1ccccc1C(=O)NC(C)C(c1cccs1)N1CCN(C)CC1 (stereo not given)
  >57	i
> CC(Oc1ccc(Cl)cc1Cl)C(=O)N(Cc1ccco1)C1CCS(=O)(=O)C1 (stereo not given)
  >57	i
> Cn1c(SCC(=O)Nc2ccc(N3CCOCC3)c(Cl)c2)nnc1C(O)c1ccccc1 (stereo not given)
  >57	i
> Cc1c(NC(=O)CCC(=O)N2CCCCC2)c(=O)n(-c2ccccc2)n1C
  >57	i
> Cc1ccc(Cn2nnnc2CN2CCC(O)(c3ccccc3F)CC2)cc1
  >57	i
> O=C(NCc1ccccc1)c1ccc(COCC(F)(F)F)o1
  >57	i
> Cc1noc(C)c1C(=O)N1CCN(C(=O)c2sc3cc(Cl)ccc3c2Cl)CC1
  >57	i
> CCOC(=O)c1ccccc1NC(=O)Cn1cnc2c(oc3ccccc32)c1=O
  >57	i
> COC(=O)c1ccc(C(NC(=O)OCc2ccccc2)/C(C)=C/[C@@H](C)C(=O)NC2CCCCC2)cc1 (stereo not given in full)
  .	i
> CN(C)/C=N/c1cnc(C(=O)c2ccc(Cl)cc2)n1C
  .	i
> NC(=O)COc1ccc2c3c(c(=O)oc2c1)CCCCC3
  >57	i
> Cc1c(C2CC(=O)N(c3ccccc3)C2=O)[nH]n(-c2ccccc2)c1=O (stereo not given)
  >26	.
> C=CCn1c(O)c(C(CC)=NCc2cccnc2)c(=O)[nH]c1=O
  >57	i
> Cc1cnc(CNc2ncnc3ccc(-c4ccccc4C(F)(F)F)cc23)cn1
  .	i
> CC1=NS(=O)(=O)c2cc(Cl)ccc2N1
  >11	i
> O=c1cc(NCc2ccco2)c2ccccc2o1
  .	i
> CCOC(=O)Cc1csc(NC(=O)c2csc3c2CCCC3)n1
  i	i
> CCC/C=C(\CCC)C(NS(=O)(=O)CC12CCC(CC1=O)C2(C)C)c1ccc(C(=O)OC)cc1 (stereo not given)
  .	i
> Cc1cc(=O)oc(C)c1C(=O)n1nc(C)c2c1C[C@@H]1[C@H]2C1(C)C
  >26	.
> CCOc1cccc(C(=O)Nc2ccccc2N2CCN(C(=O)C(C)C)CC2)c1
  >57	i
> CN(C)Cc1nc2c(c(=O)[nH]1)C1(CCCCC1)Cc1ccccc1-2
  >57	i
> Cc1c(C(=O)NCc2ccc3c(c2)OCO3)sc2nc(-c3ccc(F)cc3)cn12
  .	i
> O=C(Cn1nc(-c2ccccc2)ccc1=O)NCCN1CCN(Cc2ccccc2)CC1
  >57	i
> COc1ccc2oc(=O)c(C(=O)O)cc2c1
  >57	i
> Cc1n[nH]c(=O)nc1NCc1ccc(Cl)cc1
  >57	i
> CS(=O)(=O)N1CCN(c2ccccc2NC(=O)c2cccnc2)CC1
  >57	i
> Cn1c(-c2ccc(CN3CCCCC3)o2)nc2ccccc21
  >11	i
> Cc1oc(-c2ccc(Cl)cc2)cc1-c1nn2c(-c3ccoc3C)nnc2s1
  ?	i
> CC(C)[C@@H](CC(=O)N[C@@H]1CCNC[C@H]1C(=O)N[C@H](CC(=O)N[C@@H](CCC(=O)O)CC(=O)O)Cc1c[nH]c2ccccc12)NC(=O)C[C@H](CO)NC(=O)[C@@H]1CNCC[C@H]1N
  .	i
> CC(=O)N1CC=CC1(C)C(=O)NCc1cc(F)cc(C(F)(F)F)c1 (stereo not given)
  .	i
> CCN(CC)C(C(=O)Nc1ccc2c(c1)OCO2)c1ccccc1 (stereo not given)
  >57	i
> O=C(CSc1nnnn1Cc1ccccc1)Nc1ccc2c(c1)OCO2
  >57	i
> CCCC(=O)NC1=C(C#N)C2(CCCC2)Cc2ccccc21
  >57	i
> CCCn1cc(NC(=O)C2CC(c3cccc(Br)c3)=NO2)cn1 (stereo not given)
  >57	i
> Cn1nc(C(=O)NC2CCCCCC2)ccc1=O
  >57	i
> Cc1ccccc1-c1nc(CS(=O)CC(=O)NCc2ccccc2)c(C)o1 (stereo not given)
  .	i
> Cc1ccc2nc(NC(=O)C3CCN(S(=O)(=O)c4cccs4)CC3)sc2c1
  >57	i
> COc1ccc(C(=O)N2CCN(C3CCCCC3)CC2)c(OC)c1
  >57	i
> Cc1nc2c(sc3nc4c(cc32)COC(C)(C)C4)c(=O)n1CC(=O)NCc1ccco1
  >57	i
> Cn1c(=NC(=O)CSCC(=O)N2CCCCC2)sc2ccccc21
  >57	i
